Screens (PubChem BioAssay)
T cruzi repl = blocks replication of Trypanosoma cruzi; inhibition, % (no concentration beside the values); 1.4% of 300,000 active; T. cruzi beta-gal in NIH3T3, luminescence, 90 h; AID 1885;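 active = mean inhibition across valid replicates above about 55%, limit read from the data; inconclusive = mean below that limit but half or more replicates reach it; inactive = mean below it, under half of replicates reach it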;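 note: signal also drops with host cell toxicity which is not excluded here; 0% = plate median of DMSO wells and 100% = zero luminescence signal; higher percent means less beta-gal luminescence so fewer parasites; stock transfer was 50 nL into about 50 µL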
B2AR ag = human beta-2 adrenergic receptor agonism by FAP; AID 504454; 0.43% of 340,000 active; Am2.2-beta2AR cells, FAP receptor internalization, flow cytometry; reference of the scale not given here; P07550; response, % (concentration not given with the values);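 active = response above a set limit, near 3 SD of response in nonfluorescent compounds, cut at about 42% in these data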;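 note: stock transfer was 100 nL into about 11 µL; a reference agonist was the positive control; negative values mostly stem from fluorescent compounds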
Target sequence (P07550 whole entry, looked up): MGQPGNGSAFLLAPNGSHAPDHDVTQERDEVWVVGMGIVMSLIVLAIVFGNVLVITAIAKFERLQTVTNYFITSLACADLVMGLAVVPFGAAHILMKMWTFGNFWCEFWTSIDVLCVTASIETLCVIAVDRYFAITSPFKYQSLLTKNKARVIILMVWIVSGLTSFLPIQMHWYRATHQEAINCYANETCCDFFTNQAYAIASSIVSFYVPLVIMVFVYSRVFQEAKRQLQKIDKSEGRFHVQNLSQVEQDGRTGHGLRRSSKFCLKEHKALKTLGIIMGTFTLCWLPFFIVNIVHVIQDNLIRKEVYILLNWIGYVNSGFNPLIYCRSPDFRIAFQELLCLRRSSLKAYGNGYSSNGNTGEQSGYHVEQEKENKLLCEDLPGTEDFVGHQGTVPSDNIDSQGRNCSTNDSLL
Calb FLC = affects C. albicans growth with fluconazole. C. albicans CaCi-2 (fluconazole-resistant clinical isolate) + fluconazole, Alamar Blue growth, 48 h. growth inhibition, % (test concentration not listed). 0.57% of 300,000 active;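 active = most replicates above 75%; inconclusive = exactly half above 75%; inactive = most below 75%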;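 note: all wells also contain fluconazole at 8 µg/ml as a sub-toxic cotreatment; 0% = median of DMSO wells and 100% = median of geldanamycin control wells; wells of about 8 µL received 7.5 nL stock; the first replicate is given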
Beta apoptosis = blocks beta cell apoptosis; INS-1E cytokine-induced death, ATP luminescence, 48 h; percent of positive-control rescue, neutral wells zero; protection from apoptosis, % (test concentration not listed); 0.8% of 300,000 active; AID 435005;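 active = all replicates at 75% or more, or half of them and the mean; inconclusive = half reach 75% but not the mean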;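 note: 0% = cytokine-treated negative control wells and 100% = positive control rescue; higher means more ATP so stronger rescue from cytokine killing; wells of about 40 µL received 100 nL stock; the first replicate is given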
Bfl-1 A1 inh = inhibitors of the anti-apoptotic protein A1, read as caspase activation | 0.066% of 330,000 active | MEF A1-2A-BIM cells, Caspase-Glo 3/7 luminescence, 3 h; percent of clofoctol response, vehicle zero | caspase activation, % (no concentration beside the values);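 active = over half of replicate activation scores above 10%, or exactly half above 10 with the replicate mean above 10; inconclusive = replicate mean below 10 yet half the replicates above 10; inactive = over half of replicates below 10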;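 note: wells of about 30 µL received 50 nL stock; many hits fall short of the cut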
LANA-H2A inh = blocks KSHV LANA binding to histone H2A/H2B; Q9QR71; cell-free LANA-H2A/H2B peptide, fluorescence polarization; inhibition, % (no concentration beside the values); 0.6% of 320,000 active; AID 2629; in the data active = inhibition mostly above about 10%, no sharp cut-off; inactive = mostly below about 6.7%;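 note: stock transfer was 7.5 nL into about 10 µL; 0% = median of vehicle wells and 100% = median of positive control wells; one replicate is shown; the record names a cut of 25% in any replicate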
RanGTP-Impb inh = disruptors of Ran-importin-beta complex formation – biochemical, FRET, CFP-Ran, YFP-importin-beta, homogeneous, primary screen. cell-free CFP-Ran/YFP-importin-beta FRET ratio. inhibition, % (no concentration beside the values). 1.1% of 300,000 active;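 active = most replicates above 15%; inconclusive = exactly half above 15%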;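 note: 0% = DMSO wells and 100% = Ran loaded with GDP instead of GTP; wells of about 40 µL received 100 nL stock; the first replicate is given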
UCH37 DUB inh = blocks the human deubiquitinase UCH37; purified proteasome/UCH37, Ub-AMC cleavage fluorescence; inhibition, % (concentration not given with the values); Q9Y5K5; 0.33% of 330,000 active; AID 588478;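 active = mean of two replicates above 20%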;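 note: 0% = compound-free wells with enzyme and 100% = wells lacking proteasome; stock transfer was 100 nL into about 20 µL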
Target sequence (Q9Y5K5 whole entry, looked up): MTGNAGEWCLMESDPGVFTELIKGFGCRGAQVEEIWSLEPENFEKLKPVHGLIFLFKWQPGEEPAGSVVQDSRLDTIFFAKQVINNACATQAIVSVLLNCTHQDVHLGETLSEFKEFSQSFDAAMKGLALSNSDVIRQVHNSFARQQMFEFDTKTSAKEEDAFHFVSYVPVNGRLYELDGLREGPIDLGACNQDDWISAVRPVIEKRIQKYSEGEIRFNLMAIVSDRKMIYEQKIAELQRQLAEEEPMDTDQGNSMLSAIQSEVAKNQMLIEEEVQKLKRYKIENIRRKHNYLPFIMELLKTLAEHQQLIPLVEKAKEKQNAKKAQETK
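Material: human UCH37 enzyme supplied as purified proteasome complex / Amount: 0.15 nM proteasome as dispensed / Buffer or medium: pH 7.4 Tris-HCl (50 mM) with ovalbumin, ATP-MgCl2, DTT / Times: preincubation 30 min, reaction 25 min, room temperature / Technique: AMC fluorescence from Ub-AMC cleavage, excitation 355 nm, emission 460 nm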
* hit, by the source's call; ? = inconclusive; nt = not tested or not shown.

SMILES	T cruzi repl	B2AR ag	Calb FLC	Beta apoptosis	Bfl-1 A1 inh	LANA-H2A inh	RanGTP-Impb inh	UCH37 DUB inh
Cc1cccc(C(=O)O/N=C2\CCS(=O)(=O)c3sccc32)c1	-8	24	-6	0	-1.0	-1.6	5.9	nt
Cc1ccnc2nc(C(=O)OCC(=O)NCc3cccc(Cl)c3)nn12	nt	3	nt	1	-0.7	3.2	nt	1.4
COc1cccc(NC(=O)COc2nc3ccccc3nc2C)c1	-6	14	-1	1	-0.3	0.8	-0.3	-1.1
OCCNc1nc(N2CCCCC2)nc2ccccc12	7	-13	-7	1	0.1	-2.0	4.1	-50
Cc1nc2c(C)cccn2c(=O)c1NC(=O)c1ccco1	-6	-5	1	-2	0.1	3.3	-3.2	6.0
Cn1c(N2CCCC2)nc2c1c(=O)n(Cc1cccc(F)c1)c(=O)n2C	-13	-12	-10	nt	-0.7	1.0	-4.6	-1.3
Cc1ccccc1S(=O)(=O)Cc1ccc(C(=O)NC2CCC(C)CC2)o1 (stereo unspecified)	5	-1	-2	-2	-0.2	0.0	-3.1	6.4
COc1ccc(-c2n[nH]c(=S)n2-c2ccc(Br)cc2)cc1OC	-3	-3	7	0	0.1	2.9	1.9	4.3
O=C(NC1CCN(Cc2ccccc2)CC1)c1ccc(Cl)cc1Cl	3	2	-25	-5	-0.5	4.3	-0.4	0.3
Cc1ccn2c(NC3CCCC3)c(-c3ccncc3)nc2c1	36	-2	-33	-5	0.3	4.4	-0.7	-11

Ordered by molar mass (smallest number first): some entries from above
SMILES	T cruzi repl	B2AR ag	Calb FLC	Beta apoptosis	Bfl-1 A1 inh	LANA-H2A inh	RanGTP-Impb inh	UCH37 DUB inh
OCCNc1nc(N2CCCCC2)nc2ccccc12	7	-13	-7	1	0.1	-2.0	4.1	-50
Cc1nc2c(C)cccn2c(=O)c1NC(=O)c1ccco1	-6	-5	1	-2	0.1	3.3	-3.2	6.0
Cc1ccn2c(NC3CCCC3)c(-c3ccncc3)nc2c1	36	-2	-33	-5	0.3	4.4	-0.7	-11
COc1cccc(NC(=O)COc2nc3ccccc3nc2C)c1	-6	14	-1	1	-0.3	0.8	-0.3	-1.1
Cc1cccc(C(=O)O/N=C2\CCS(=O)(=O)c3sccc32)c1	-8	24	-6	0	-1.0	-1.6	5.9	nt
Cn1c(N2CCCC2)nc2c1c(=O)n(Cc1cccc(F)c1)c(=O)n2C	-13	-12	-10	nt	-0.7	1.0	-4.6	-1.3
Cc1ccnc2nc(C(=O)OCC(=O)NCc3cccc(Cl)c3)nn12	nt	3	nt	1	-0.7	3.2	nt	1.4
O=C(NC1CCN(Cc2ccccc2)CC1)c1ccc(Cl)cc1Cl	3	2	-25	-5	-0.5	4.3	-0.4	0.3
Cc1ccccc1S(=O)(=O)Cc1ccc(C(=O)NC2CCC(C)CC2)o1 (stereo unspecified)	5	-1	-2	-2	-0.2	0.0	-3.1	6.4
COc1ccc(-c2n[nH]c(=S)n2-c2ccc(Br)cc2)cc1OC	-3	-3	7	0	0.1	2.9	1.9	4.3

Next part:
SMILES	T cruzi repl	B2AR ag	Calb FLC	Beta apoptosis	Bfl-1 A1 inh	LANA-H2A inh	RanGTP-Impb inh	UCH37 DUB inh
CC(NC(=O)C1(S(=O)(=O)c2ccc(Cl)cc2)CC1)c1ccccc1 (stereo unspecified)	-4	-2	-8	-5	0.7	0.4	0.4	1.1
CC(=O)c1ccccc1OCCOCCOc1ccccc1C(C)=O	-19	2	3	108*	-0.3	7.6	0.8	1.9
COc1ccc(NC(=O)CN(C)S(=O)(=O)c2ccc3c(c2)CC(C)N3C(C)=O)cc1OC (stereo unspecified)	0	-1	6	nt	0.3	-2.5	2.6	5.8
O=C(Cc1ccccc1)Nc1ccc2[nH]ncc2c1	-18	10	5	-7	1.1	2.0	4.3	0.9
CCCC(=O)N(Cc1cccnc1)c1nc2c(OC)ccc(Cl)c2s1	18	-9	-20	-3	0.5	2.2	1.5	1.5
Cc1nc(SCC(=O)NC2CCCC2)[nH]c(=O)c1C	-7	7	-6	0	0.7	-2.2	-0.5	4.1
Cc1ccc(NC(=S)NN2CCOCC2)c(C)c1	-7	-1	-8	-8	-0.5	-2.8	1.4	-0.2
CN(C(=O)COC(=O)c1cccc(Cl)c1)C1CCS(=O)(=O)C1 (stereo unspecified)	nt	2	nt	-1	1.1	6.2	nt	0.5
Cc1nn(-c2ccccc2)c(OC(=O)c2cccs2)c1S(=O)(=O)c1ccccc1	-8	-4	-2	-4	-0.3	2.4	4.9	3.2
O=C(N/N=C/c1c(Cl)[nH]c2ccccc12)c1ccc2c(c1)OCCO2	3	-9	-7	0	-1.4	-2.5	-6.5	nt
Cc1oc2c(CN3CCOCC3)c(O)ccc2c(=O)c1-c1ccc(Br)cc1	-2	-22	1	-1	0.3	-5.3	-3.3	-64
CC(C)(C)c1csc(SCC(=O)Nc2ccc(Cl)cn2)n1	5	-2	6	-7	-0.1	-5.3	2.5	2.1
O=C(Cn1[nH]c(=O)c2ccccc2c1=O)OCC(=O)c1ccccc1Cl	-8	2	nt	-7	0.0	0.0	2.4	1.6
CCOC(=O)CN1C(=O)N[C@@H](c2ccccc2)C(C(C)=O)=C1C	nt	-4	nt	-9	0.2	-2.2	nt	2.5
Cc1ccc(C(=O)N(C)Cc2nc3ccccc3c(=O)[nH]2)cc1NC(=O)c1ccco1	nt	12	nt	1	0.7	-1.6	nt	0.2
O=C(CSc1nnnn1-c1ccc(F)cc1)Nc1ccc(N2CCOCC2)c(Cl)c1	5	-1	-2	0	0.5	-1.6	3.7	2.8
N#CC1=C(N)SC(N)=C(C#N)C1c1c(Cl)cccc1Cl	nt	15	-11	-4	-0.3	-13	9.9	-3.2
COCc1cccc(C2=CC(=O)C[C@H](c3ccc(F)cc3)C2)c1	nt	1	nt	4	-0.3	5.4	nt	2.0
Cc1nc(C)c(C(=O)Nc2ncc([N+](=O)[O-])s2)o1	-4	2	-9	3	-8.0	-5.7	1.0	12
Cc1ccc(S(=O)(=O)/N=C(/Nc2ccccn2)c2ccc(Cl)cc2)cc1	0	-6	1	-2	-0.5	1.5	4.3	-1.1
COCCn1c(SCC(=O)Nc2cc(C(C)(C)C)nn2-c2ccccc2)nnc1-c1ccncc1	13	-5	-2	-7	0.7	-3.2	1.5	0.3
CC1C(=O)NN=C1C(=O)N/N=C/c1ccco1 (stereo unspecified)	3	4	-3	0	1.2	-2.3	4.6	nt
CCC(Cc1ccccc1)NS(=O)(=O)c1csc(C(N)=O)c1 (stereo unspecified)	-21	5	5	-1	0.3	-1.1	1.9	0.8
CCOc1ccc(C(=O)NCC(=O)NCC(c2ccc(OC)cc2)N2CCOCC2)cc1OCC (stereo unspecified)	0	-9	-13	-5	1.3	-7.2	2.6	3.5
COC(=O)/C=C/CSC1=N/C(=C/c2ccc(-n3cncn3)cc2)C(=O)N1	9	10	-4	-5	-0.3	1.9	1.4	8.2
COC(=O)c1ccc(C2C(Oc3ccccc3C)C(=O)N2CCc2ccc(OC)c(OC)c2)cc1 (stereo unspecified)	32	3	1	3	0.7	-5.5	3.0	-2.1
COc1ccc2nc(NC(=O)c3cc(C)oc3C)sc2c1	31	2	-30	23	-12	0.0	1.8	-7.5
CCOc1ccc(C(C)NC(=O)CN2C(=O)NC3(CCCCC3)C2=O)cc1OCC (stereo unspecified)	nt	0	nt	1	0.2	2.3	nt	-0.5
CCc1nnc(NC(=O)CSc2nc(-c3ccccc3)cc(-c3ccc(OC)cc3)c2C#N)s1	-16	-6	-5	11	-0.2	3.4	2.7	-108
Cc1c(Cl)c([N+](=O)[O-])nn1CC(=O)NC(C)c1ccccc1 (stereo unspecified)	6	-1	-1	4	0.4	-0.9	-0.4	1.5
COCCN1CCC(CNCc2c(C(=O)N3CCCCC3)nc3c(C)cccn23)C1 (stereo unspecified)	-1	11	-11	-9	-0.3	-5.6	1.3	0.6
CCOC(CNC(=O)c1ccc2c(c1)ncn2-c1cccc(F)c1)OCC	1	-8	2	-4	0.8	5.7	-1.5	6.1
CC1CCCN(C(=O)CCNS(=O)(=O)c2ccc3c(c2)c(=O)n(C)c(=O)n3C)C1 (stereo unspecified)	-8	4	12	1	0.9	1.0	4.1	0.8
CC(CC(=O)O)CC(=O)Nc1nncs1 (stereo unspecified)	-13	-4	-2	1	0.1	2.9	-1.1	2.3
CCN(c1ccccc1)S(=O)(=O)c1ccc(C(=O)Nc2nnc(C3CC3)o2)cc1	72*	6	79*	3	1.0	2.9	?	1.0
Cc1cc(NC(=O)c2cncc(Br)c2)ccc1NC(=O)c1cc2ccccc2o1	-3	35	-5	60	-1.0	1.7	3.7	-66
CC(C)n1c(-c2cccnc2)nc2cnccc21	-14	-8	-7	-1	-0.1	2.3	2.4	3.3
Clc1ccc(-c2nnc(-c3ccccc3)o2)c(Cl)c1	-8	-11	-29	-2	-6.5	-0.8	-1.3	2.0
Cc1cc(C)c(C(=O)CC(=O)c2ccccc2Cl)c(O)c1	-9	4	53	nt	-0.2	2.0	0.1	4.1
COC(=O)Nc1sccc1C(=O)Nc1sccc1C(=O)OC	-4	3	-7	-2	0.1	5.7	-7.7	-17
COCCn1c(SCC(=O)c2c(N)n(C)c(=O)n(C)c2=O)nc2ccccc21	-15	-14	?	0	0.1	1.2	-1.2	5.2
O=C(OCC(=O)N1CCC(Cc2ccccc2)CC1)c1cncc(Br)c1	nt	-1	nt	-6	-0.5	-1.4	nt	5.3
O=C(NCCN1CCN(C(=O)c2cccc(OC(F)F)c2)CC1)c1cccc(OC(F)F)c1	nt	-2	nt	-5	0.3	-1.6	nt	4.4
COc1cccc(S(=O)(=O)N2CCN(Cc3ccc4c(c3)OCO4)CC2)c1	-6	5	-12	0	0.0	-0.8	2.0	1.5
COc1cc(NC2c3ncccc3C(=O)N2Cc2ccco2)cc(OC)c1OC (stereo unspecified)	-22	2	27	-3	0.4	0.4	?	0.9
C#CCOCCOCCOCCNc1nc(N2CCN(C(=O)[C@H](CCCCN)n3cc([C@@H](N)C(C)CC)nn3)CC2)nc(N2CCN(C(=O)[C@H](Cc3ccc(O)cc3)n3cc([C@@H](N)C(C)CC)nn3)CC2)n1 (stereo partly specified)	-15	3	-2	-3	-1.4	-0.5	1.9	1.4
